# TRPML1 inh: inhibitors of human TRPML1 channel. Q9GZU1. TRPML1-inducible cells, Ca2+ dye fluorescence, FDSS; stronger effect = lower value; inhibition of EC80 agonist-evoked calcium signal. activity change, negative = inhibition, % (concentration not given with the values). actives 0.02% (n = 390,000); in the data active means activity change below about -50%; inconclusive means about -30% to -50%; inactive means above about -30%;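 also: stimulus is agonist 54-4 at its EC80 concentration; % is scaled to controls: 0 for no effect and ±100 for the full control effect; compound concentration not given in the record; the text of the record puts the active cut at -80%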
# Target sequence (Q9GZU1 whole entry, looked up): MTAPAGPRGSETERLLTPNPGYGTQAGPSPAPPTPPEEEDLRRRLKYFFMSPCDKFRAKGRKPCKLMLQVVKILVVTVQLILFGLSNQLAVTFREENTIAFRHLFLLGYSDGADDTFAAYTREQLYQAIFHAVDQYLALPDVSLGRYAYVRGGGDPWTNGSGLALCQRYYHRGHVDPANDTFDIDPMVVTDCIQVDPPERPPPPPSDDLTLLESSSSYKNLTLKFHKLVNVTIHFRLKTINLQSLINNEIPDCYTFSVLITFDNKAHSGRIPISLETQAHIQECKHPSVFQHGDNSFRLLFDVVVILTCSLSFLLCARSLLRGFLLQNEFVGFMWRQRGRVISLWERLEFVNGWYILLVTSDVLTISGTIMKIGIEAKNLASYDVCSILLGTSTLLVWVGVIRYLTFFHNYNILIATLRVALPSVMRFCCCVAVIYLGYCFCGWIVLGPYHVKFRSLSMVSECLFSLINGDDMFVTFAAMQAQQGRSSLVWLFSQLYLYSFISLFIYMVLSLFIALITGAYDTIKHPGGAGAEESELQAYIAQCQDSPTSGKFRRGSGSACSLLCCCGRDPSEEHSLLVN
#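 Calcium fluorescence in TRPML1-DL cells induced overnight with Tet: a 110 s read after compound pin addition, then a 110 s antagonist read after challenge with 54-4 at 4 uM final (EC80).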
# Menin-MLL FL inh: inhibitors of human menin-MLL interaction, wild-type MLL peptide | AID 1766 | FP activity change, % at 61.4 µM | 290,000 tested, under 10 active | Fluorescence polarization, fluorescein-MLL peptide displacement from menin; inconclusive = falling polarisation curve, or a change in total fluorescence; inactive = total fluorescence flat and polarisation flat or rising; no compound was filed as active; the % refers to the polarisation; negative = inhibition;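 also: % of control where 0% means no effect; inhibitors lower the polarisation; unlabelled MLL peptide was the positive control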
# gsp antag: gsp mutant antagonism. gsp-mutant cells, cAMP HTRF, 30 min; control for the full effect not named in the record. Potency, µM (doses to about 76.9 µM), inactives show at the top dose activity change, negative = inhibition, usual class: inhibitors. actives 0.4% (n = 340,000). AID 624288; active = falling curve of any shape with a large fitted effect; inconclusive = falling curve, mostly with a smaller effect; inactive = flat or rising curve; cell line not stated here;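 also: intracellular cAMP measured with PDE inhibitor Ro 20-1724 present during compound exposure; potency is read from the fitted curve at half-maximal effect; % is scaled to controls: 0 for no effect and ±100 for the full control effect; nearly all actives have a fitted effect of over 65% in size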
#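 G418-selected cells were plated in DMEM/10% FBS for 16-24 h at 37C, then treated with compounds plus the PDE inhibitor […] (300 uM solution added) for 30 min at 37C. Intracellular cAMP was measured by HTRF after 30 min lysis at room temperature.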
# ClpP mod: qHTS Assay for Activators of ClpP; AID 651965, 2013; actives 1.9% (n = 340,000); ATP-dependent Clp protease proteolytic subunit (Bacillus subtilis (strain 168)), P80244; Potency, µM (titrated, usually from 57.5 µM), for inactives: top-dose activity change, negative = active; purified B. subtilis ClpP, FRET peptide cleavage, 20 min; active = well fitted falling curve with a large enough effect; inconclusive = small, poorly fitted or top-dose-only effect; inactive = no such curve, though single readings can be large or run the other way; also: potency is read from the fitted curve at half-maximal effect; the source files actives as falling curves though it sought activators and does not explain the sign; nearly all actives have a fitted effect of over 65% in size; many hits overshoot -100%
# Target sequence (P80244 whole entry, looked up): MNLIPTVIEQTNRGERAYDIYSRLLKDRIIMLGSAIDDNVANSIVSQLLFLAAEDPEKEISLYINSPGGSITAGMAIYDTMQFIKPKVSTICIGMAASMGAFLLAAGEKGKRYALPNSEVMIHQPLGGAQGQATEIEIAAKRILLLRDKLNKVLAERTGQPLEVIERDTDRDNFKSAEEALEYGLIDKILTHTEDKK
#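 Purified B. subtilis ClpP, 10 microg/mL final in Tris/HCl pH8 with KCl, BSA, glycerol and Tween-20, cleaved an Abz/nitrotyrosine-quenched decapeptide. Fluorescence (ex 320, em 430) was read at 0 and 20 min at room temperature. Delta was normalized to 5.8 microM ADEP and DMSO/no-enzyme controls.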
# gsp agonist: gsp mutant agonism; Potency, µM (titrated, usually from 76.9 µM), for inactives: at the top dose activation (cAMP increase), usual class: activators; actives 0.13% (n = 340,000); gsp mutant cells, cAMP HTRF, 30 min; control for the full effect not named in the record; active = well fitted activation curve with a large enough effect; inconclusive = small, poorly fitted or top-dose-only effect, or another doubt; inactive = no such curve, though single readings can be large or run the other way; cell line not stated here;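 also: phosphodiesterase inhibitor Ro 20-1724 added with compounds to block cAMP breakdown; potency is read from the fitted curve at half-maximal effect; nearly all actives have a fitted effect of over 60% in size; about a fifth of the inactives were tested at one dose only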
#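 Cells in DMEM/10% FBS with G418 were pretreated with compounds in DMSO plus […] (300 uM stock) for 30 min at 37C. cAMP was measured by HTRF (cAMP-d2 plus anti-cAMP antibody-K) after 30 min at room temperature.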
# TRPML1 ag: human mucolipin-1 channel agonism; TRPML1-expressing cells, Ca2+ dye fluorescence, FDSS; host cell line not named in the record; reference of the full effect not given here; Q9GZU1; AID 624414; activation, % (no concentration beside the values); actives 0.12% (n = 410,000); in the data active = activation above about 50%; inconclusive = about 30% to 50%; inactive = below about 30%; also: 0% is about no effect; the text of the record puts the active cut at 80%
#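 Calcium fluorescence on an FDSS kinetic reader gave the read-out. Tet-induced TRPML1-DL cells were plated overnight, dye-loaded (Ca8 with quencher, 45-90 min, room temperature, dark), then read 110 s after compound addition, and again 110 s after 4uM final 54-4 (EC80).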
# Numbers without * were called inactive; ? = inconclusive; . = not tested or not shown; [ ] = another dose, or the depositor's remark.
SMILES,TRPML1 inh,Menin-MLL FL inh,gsp antag,ClpP mod,gsp agonist,TRPML1 ag
CCN(CCCNC(=O)C1CCN(S(=O)(=O)c2cnc[nH]2)CC1)c1ccccc1,13,3.3,-6%,-1.6%,-9%,-1.2
O=S(=O)(/N=C(/Nc1ccccc1)c1ccccc1)c1cccs1,12,7.7,5%,-0.6%,-13%,0.6
O=c1c2ccccc2ncn1CCCCOc1ccccc1F,-4,5.8,0%,1.5%,-1%,1.8
CCOC(=O)c1c(NC(=O)c2ccc(N3C(=O)C4C5C=CC(C5)C4C3=O)cc2)sc2c1CCCC2 (stereo not drawn),6,6.3,2%,-5.8%,3%,-0.6
COc1cc(CO)ccc1OCC(=O)Nc1cccc2ccccc12,-8,.,-15%,2.1%,-74%[inhibitor],0.1
Cc1cc(C)n2nc(C(=O)OCC(=O)NNC(=O)c3ccccc3)nc2n1,-2,.,4%,0.1%,?,0.2
CNC(=O)OCCSCCS(=O)(=O)c1ccc(Cl)cc1,0,-0.1,3%,0.0%,-1%[15.4 µM],-0.6
NC(=O)CN(c1ccc([N+](=O)[O-])cc1)S(=O)(=O)c1ccccc1,17,-2.1,-2%,.,19%[15.4 µM],0.2
Cc1ccc(S(=O)(=O)c2ccc(Cl)cc2)cc1S(N)(=O)=O,-7,-3.2,-20%,-5.2%,5%,1.1
CCOC(=O)Cn1c(=O)oc2cc(S(=O)(=O)N(C)Cc3ccccc3)ccc21,-11,2.4,-12%,-0.6%,4%,0.2
COc1ccccc1C(=O)NC(=S)Nc1ccc(N2CCN(C(=O)c3ccco3)CC2)cc1,-3,.,-15%,1.5%,-2%,-0.6
COc1ccc(-c2nnnn2C)cc1S(=O)(=O)NCCc1ccccc1,22,-0.7,-1%,-1.6%,0%,-0.3
COc1ccc(NC2=NC3(CCCCC3)N=C(N)N2)cc1,8,-0.4,8%,0.6%,10%,-0.7
CC(C)c1ccc(Nc2nnc(SCC(=O)Nc3ncc(S(=O)(=O)c4ccc([N+](=O)[O-])cc4)s3)s2)cc1,-3,-1.0,-1%,0.7%,-57%[inhibitor],0.6
CCCN1C(=O)C(O)(CC(=O)c2ccc(CC)cc2)c2cc(Br)ccc21 (stereo not drawn),3,.,.,1.9%,.,0.0
COc1ccc(Cl)cc1C(=O)Nc1ccc2nc(Nc3cccc(Cl)c3)cc(C)c2c1,6,.,.,3.7%,.,-0.3
COC(=O)c1ccccc1NC(=O)CN1CCC(n2nnc3cc(C(F)(F)F)ccc32)CC1,6,2.2,-15%,0.0%,-36%,-0.5
Cc1cc2ncn(C(=O)c3c(-c4c(Cl)cccc4Cl)noc3C)c2cc1C,4,4.3,-7%,1.7%,16%,1.3
C=CCSc1nc(N)c(C(=O)Nc2ccccc2OC)cc1C(=O)Nc1ccccc1,2,5.7,6%,768%,-31%,3.1
C=CCn1c(C2CC(=O)N(c3ccc(C)cc3)C2)nc2ccccc21 (stereo not drawn),6,-4.0,-15%,0.4%,-4%,0.5
CCCN(CCC)CCNC(=O)C1CCCN(S(=O)(=O)c2ccc3c(c2)oc(=O)n3C)C1 (stereo not drawn),22,-0.5,0%,-1.9%,11%,0.6
COc1cc(S(=O)(=O)Nc2ccccc2C(=O)N2CCCC2)ccc1NC(C)=O,1,.,8%,1.8%,24%,-0.2
Cn1ncc(Br)c1C(=O)NC1CCCCCCC1,12,-1.4,7%,-0.3%,-13%,0.9
COc1ccccc1NC(=S)N1CCN(C(=O)C2CCCO2)CC1 (stereo not drawn),3,-0.8,-19%,-1.8%,14%,0.1
CSCCC(NC(=O)COc1ccccc1)C(=O)OCc1ccc(Cl)cc1 (stereo not drawn),-3,.,-13%,.,5%[15.4 µM],3.7
Clc1ccccc1OCCCOc1cccc2cccnc12,-2,1.6,-5%,-6.7%,-12%[15.4 µM],1.3
O=S(=O)(Nc1cc(Cl)ccc1N1CCCCC1)c1cccs1,6,5.4,-21%,-1.1%,32%,1.4
CC(C(=O)NCC(=O)Nc1ccc(F)c(F)c1F)N1CCN(Cc2ccc(C#N)cc2)CC1 (stereo not drawn),8,.,13%,0.5%,15%,1.3
COc1ccc(-c2nc3ccccc3c(C(=O)Nc3ccc(S(=O)(=O)Nc4cc(C)on4)cc3)c2C)cc1,9,4.9,-18%,-16%,6%,0.7
CCn1nnnc1SCC(=O)N1CCN(c2ccccc2)CC1,-6,14,8%,1.8%,2%,-1.0
O=C(Nc1cccc(S(=O)(=O)NC2=NCCC2)c1)c1ccc(=O)[nH]c1,15,.,12%,-3.5%,7%,-0.3
CCN1CCN(Cc2nnc(-c3ccc(C)cc3)o2)CC1,1,-0.1,7%,-3.2%,?,1.4
COc1ccc(S(=O)(=O)NC(Cc2cnc[nH]2)C(=O)O)cc1 (stereo not drawn),-3,2.2,8%,9.0%,16%,0.1
CN1C(=O)C2(SCC(=O)N2c2ccc(F)cc2)c2ccccc21 (stereo not drawn),-6,.,.,1.1%,.,4.2
COc1cc(C2C(C(=O)c3ccco3)=C(O)C(=O)N2CCc2ccccc2)ccc1O (stereo not drawn),28,1.8,-22%,0.1%,20%,-1.0
CC1CN(C(=O)c2ccc(-c3ccccc3Cl)o2)CC(C)O1 (stereo not drawn),7,.,-1%,-15%,-24%[15.4 µM],1.9
COc1ccc(CCNC(=O)CC2SC(=NCc3ccccc3OC)NC2=O)cc1 (stereo not drawn),21,-4.1,-5%,-2.2%,-6%,0.8
O=C(NCCc1ccccc1)C1CCC(Cn2c(=O)c3ccccc3n(Cc3cccc(Cl)c3)c2=O)CC1 (stereo not drawn),-14,.,-4%,.,3%[15.4 µM],1.4
CSc1ccccc1NC(=O)c1cc(CC(C)C)on1,10,2.9,5%,-7.4%,-4%,0.2
C/C(=N\NC(=O)c1nnn(-c2nonc2N)c1C(C)C)c1ccncc1,33,-12,-7%,.,6%[15.4 µM],0.3
COc1cccc(CN(C)C(=O)CSC(C)C(=O)Nc2cc(C)on2)c1OC (stereo not drawn),-7,.,2%,-1.2%,1%,-0.9
COc1ccc(CNCC(O)(c2ccccc2)c2ccc(Cl)cc2)cc1 (stereo not drawn),-2,-2.2,-1%,-1.0%,-1%,1.0
Cc1cc(C)n2nc(C(=O)NCC(=O)Nc3ccc(F)c(F)c3)nc2n1,-5,.,6%,0.3%,5%[15.4 µM],-0.2
O=C1CCCN1CCCNC(=S)Nc1ccc(Cl)cc1Cl,11,0.8,6%,0.3%,-3%,-0.2
Cc1cccc(OCC(=O)NCc2ccc3c(c2)CCN3C(=O)c2ccc(Cl)cc2)c1,2,.,.,-19%,.,-0.4
O=C(Nc1cnc2ccccn2c1=O)c1ccc(Cl)cc1,-4,1.3,7%,-2.5%,27%,0.2
CC(=O)Nc1ccc(SC[C@H](CC(C)C)N2CCN(CCc3ccccc3)CCC2=O)cc1,-5,-1.6,-9%,-2.7%,-12%,-0.5
Cc1c(S(=O)(=O)NC(C)c2ccccc2)c(=O)n(C)c(=O)n1C (stereo not drawn),-15,.,4%,-1.5%,-26%,0.0
O=C(c1cc(-c2ccc(F)cc2)on1)N1CCCC1,8,1.1,8%,-1.2%,-38%,0.8
COc1ccc(N2CCN(Cc3cc(=O)oc4ccc5ccccc5c34)CC2)cc1,-2,-0.2,-6%,-0.4%,0%,-0.2
Cc1ccc(SCCNS(C)(=O)=O)cc1,5,3.7,21%,0.4%,-42%[inhibitor],-1.2
COc1ccc(CCN2C(=O)CC(Sc3ncccc3C(=O)O)C2=O)cc1OC (stereo not drawn),-7,0.7,10%,1.8%,29%,-0.4
COc1ccc(OC)c(CC(=O)Nc2cc(S(=O)(=O)N3CCCCC3)ccc2C)c1,-11,.,-20%,-3.0%,23%,-0.2
O=C(c1cc2ccccc2o1)N1CCN(Cc2ccccc2)CC1,-19,1.6,8%,-1.8%,-15%,1.9
NC(=O)c1c(NC(=O)CN2CCN(S(=O)(=O)c3ccccc3)CC2)sc2c1CCC2,17,.,?,-1.0%,3%[15.4 µM],0.4
Cc1ccc(C)c(S(=O)(=O)N2CCN(C(=O)c3ccc(N4CCCC4)c([N+](=O)[O-])c3)CC2)c1,1,-3.8,-17%,0.1%,34%,-0.2
O=C(O)C1CCC(=O)N(C2CCCCC2)C1c1ccccc1Cl (stereo not drawn),14,6.9,-7%,-1.0%,19%,1.5
CCOC(=O)CSc1nnc2n(Cc3ccccc3)c(=O)c3c4c(sc3n12)CCC4,-14,2.5,-5%,-1.9%,-29%,-0.9
CCN(C[C@H]1N[C@@](CC)(C(=O)OC)[C@H]2C(=O)N(Cc3ccccc3)C(=O)[C@@H]12)S(=O)(=O)c1ccc(C(F)(F)F)cc1,3,.,-2%,-2.1%,.,0.0
COC(=O)c1ccc2c(=O)n(-c3ccc(OC)cc3)c(=S)[nH]c2c1,-1,0.6,-6%,2.9%,-1%[15.4 µM],0.1

# Following part
SMILES,TRPML1 inh,Menin-MLL FL inh,gsp antag,ClpP mod,gsp agonist,TRPML1 ag
Cc1ccc(NC(=O)CSCc2cnn(-c3ccccc3)c2-n2cccc2)c(Cl)c1,-11,.,.,0.3%,.,3.6
COc1ccc(Cl)cc1NC(=S)NCCO,15,-4.3,10%,.,10%,-0.6
COC(=O)c1ccccc1NC(=O)c1nn(C)c2c1COc1ccccc1-2,12,.,.,-4.2%,.,1.3
c1ccc(C2=NNC(c3ccco3)=Nc3ccccc32)cc1,4,1.2,-5%,-2.2%,8%,1.5
CCOc1ccc(S(=O)(=O)Nc2cccc(Cl)c2)cc1,-1,.,5%,-2.9%,-6%,-0.5
CCN(C(=O)COC(=O)COc1ccc2c(c1)CCC2)c1c(N)n(Cc2ccccc2)c(=O)[nH]c1=O,-14,.,2%,-5.2%,7%[15.4 µM],0.4
CC(OC(=O)Cc1ccc(Cl)cc1)C(=O)NC1CCCCC1C (stereo not drawn),1,.,12%,-1.5%,5%[15.4 µM],2.6
O=C(NCc1ccccn1)C1CC(c2ccc(F)cc2)=NO1 (stereo not drawn),-8,1.3,10%,-0.5%,7%,-0.7
CC(NC(=O)c1ccnc(C(C)(C)C)c1)c1ccccc1 (stereo not drawn),9,2.9,-14%,-2.4%,-60%[inhibitor],-0.2

# One compound at a time, as listed above. Screens in order: TRPML1 inh	Menin-MLL FL inh	gsp antag	ClpP mod	gsp agonist	TRPML1 ag
# Record of c1ccc(C2=NNC(c3ccco3)=Nc3ccccc32)cc1 : 4	1.2	-5%	-2.2%	8%	1.5
# Record of COC(=O)c1ccccc1NC(=O)c1nn(C)c2c1COc1ccccc1-2 : 12	.	.	-4.2%	.	1.3

# Compound activity deposited in PubChem by National Center for Advancing Translational Sciences (NCATS).
